From PubChem BioAssay
PKD1 inh – inhibitors of human PKD1 kinase; Q15139; inhibition, %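 (about 10 µM by stock and volumes)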; hit rate 0.056% among 200,000; AID 797; PKD1 kinase fluorescence polarization assay;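 active = inhibition of 50% or more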;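 also: controls were vehicle for no effect and a reference inhibitor for full effect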
Target sequence (Q15139 whole entry, looked up): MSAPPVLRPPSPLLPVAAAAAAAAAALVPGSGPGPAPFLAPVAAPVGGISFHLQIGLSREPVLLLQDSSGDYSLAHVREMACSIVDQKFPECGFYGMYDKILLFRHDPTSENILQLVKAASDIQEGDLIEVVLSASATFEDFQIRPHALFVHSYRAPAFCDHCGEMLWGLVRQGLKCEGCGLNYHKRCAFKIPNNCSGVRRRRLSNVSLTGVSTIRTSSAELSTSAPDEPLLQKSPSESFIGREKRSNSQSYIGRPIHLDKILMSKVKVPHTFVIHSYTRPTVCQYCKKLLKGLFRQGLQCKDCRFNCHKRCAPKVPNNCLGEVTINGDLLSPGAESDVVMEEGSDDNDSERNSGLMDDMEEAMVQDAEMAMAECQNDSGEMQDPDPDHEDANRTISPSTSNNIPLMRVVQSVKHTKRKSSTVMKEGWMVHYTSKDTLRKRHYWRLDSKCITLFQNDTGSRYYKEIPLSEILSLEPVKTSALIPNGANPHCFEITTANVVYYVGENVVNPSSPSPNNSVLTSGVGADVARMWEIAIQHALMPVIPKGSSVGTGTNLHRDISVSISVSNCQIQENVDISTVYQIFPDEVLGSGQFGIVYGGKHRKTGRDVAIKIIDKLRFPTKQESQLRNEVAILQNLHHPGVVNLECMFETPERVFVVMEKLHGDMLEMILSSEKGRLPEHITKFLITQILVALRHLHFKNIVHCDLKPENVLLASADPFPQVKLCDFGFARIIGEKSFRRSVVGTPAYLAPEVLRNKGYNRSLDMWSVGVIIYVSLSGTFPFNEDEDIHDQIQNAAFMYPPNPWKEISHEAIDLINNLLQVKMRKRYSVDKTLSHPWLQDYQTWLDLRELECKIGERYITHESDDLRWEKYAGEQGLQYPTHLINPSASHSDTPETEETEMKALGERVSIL
RGS16-Gao HTS – regulators of human RGS16-Galphao interaction. O15492+P09471. bead-based flow cytometry RGS16-Galphao binding, fluorescence; actives lie on both sides. binding response (% of control), % at 10 µM. hit rate 0.38% among 220,000;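 active = below 25% or above 175%, edge rows of some plates excepted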;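 also: Galphao activated by GDP with aluminum fluoride before binding; 100% = wells without compound and 0% = beads without RGS; some results beyond the cut were filed as inactive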
INS promoter inh – TRM-6 insulin promoter activity inhibition | TRM-6 cells (human fetal islet line), insulin promoter-eGFP reporter, imaging; reporter expression induced with tamoxifen | inhibition, % at 2 µM | hit rate 0.9% among 130,000 | AID 1273;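 active = inhibition above the mean plus 3 SD, with well images judged a real hit on visual review, cut at about 60% in these data, passing the limit was not always enough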
GALR2 ag – GALR2 (human) receptor agonism. O43603. GALR2-expressing cells, agonist activation read-out. hit rate 0.48% among 140,000. activation, %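 (tested at 5 µM)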;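 active = above mean plus 3 SD of all compounds, about 5% in these data, not always enough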;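 also: 0% = vehicle buffer wells and 100% = reference agonist at full effect; tested in CHO reporter cells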
HSV replic up – HSV replication enhancement | HSV replication augmentation in cells, fold increase | maximum fold increase | hit rate 0.005% among 220,000 | AID 1956;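 active = peak rise of 1.5-fold or more in the series; tested in PC3 cells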;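 also: first round at 10 µM; read as green reporter fluorescence; hits show the peak of a series up to 25 µM; 1 = signal of infected wells without compound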
INS promoter inh cell count – recorded beside INS promoter inh, whose call it bears; normalized cell count, %; measured here: cell count, toxicity; reference of the scale not given here;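 cells exposed to compound for 48 h; stained nuclei by imaging scaled within each plate; lower means fewer cells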
HSV replic up primary fold – also measured in HSV replic up; calls as there; fold increase; compound at 10 µM; measured here: primary screen fold increase 10 uM; tested in PC3 cells;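 GFP signal in the first replicate; 1 = infected wells without compound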
* hit, by the source's call.

Start of the data: the first two records, to show the layout:
Screening Fc1ccccc1/C=N/Nc1ncnc2nc[nH]c12 returned PKD1 inh 0, RGS16-Gao HTS 99, INS promoter inh -32, GALR2 ag -1.5 and INS promoter inh cell count 50.
`CC(=O)c1sccc1NC(=O)CC(C)(C)CC(=O)O` gave RGS16-Gao HTS 103, HSV replic up inactive and HSV replic up primary fold 1.1.

All compounds of this part, from the first entry:
Screening Fc1ccccc1/C=N/Nc1ncnc2nc[nH]c12 returned PKD1 inh 0, RGS16-Gao HTS 99, INS promoter inh -32, GALR2 ag -1.5 and INS promoter inh cell count 50.
`CC(=O)c1sccc1NC(=O)CC(C)(C)CC(=O)O` gave RGS16-Gao HTS 103, HSV replic up inactive and HSV replic up primary fold 1.1.
CCSc1nc(N)c(C#N)c(-c2ccco2)c1C#N was read as PKD1 inh -20, RGS16-Gao HTS 103, INS promoter inh -31, GALR2 ag 0.2, HSV replic up inactive, INS promoter inh cell count 92 and HSV replic up primary fold 0.88.
For COc1ccc(N2CCN(C(=O)CSc3nnc(CNc4ccccc4)o3)CC2)cc1 the results were PKD1 inh -2, RGS16-Gao HTS 135, INS promoter inh 52, GALR2 ag -1.2, HSV replic up inactive, INS promoter inh cell count 110 and HSV replic up primary fold 1.
`NS(=O)(=O)c1ccc(N/N=C/c2ccccc2C(=O)O)c([N+](=O)[O-])c1` gave PKD1 inh -5, RGS16-Gao HTS 102, HSV replic up inactive and HSV replic up primary fold 0.98.
`COc1ccc(-n2cnnc2SCC(=O)N2CCN(S(=O)(=O)c3ccccc3)CC2)cc1` gave PKD1 inh -1, RGS16-Gao HTS 99, GALR2 ag -0.7, HSV replic up inactive and HSV replic up primary fold 0.91.
O=C(O)CC/C(=N\NC(=O)c1ccccc1)c1cccs1 was read as PKD1 inh -3, RGS16-Gao HTS 100, HSV replic up inactive and HSV replic up primary fold 0.97.
`CC(C)(C)C(=O)Nc1nnc(Cc2ccccc2)s1` gave PKD1 inh 8, RGS16-Gao HTS 51, INS promoter inh 52, GALR2 ag -2.4, HSV replic up inactive, INS promoter inh cell count 127 and HSV replic up primary fold 0.87.
`CCOC(=O)c1c(-c2ccc(OC)cc2)csc1/N=C/N(C)C` gave PKD1 inh -3, RGS16-Gao HTS 104, INS promoter inh 23, GALR2 ag -1.0, HSV replic up inactive, INS promoter inh cell count 100 and HSV replic up primary fold 0.97.
`CC(C)N(C(=O)Cn1c(SCC(=O)NCc2ccc3c(c2)OCO3)nc2ccccc21)C(C)C` gave PKD1 inh -3, RGS16-Gao HTS 104, INS promoter inh -160, GALR2 ag -1.4, HSV replic up inactive, INS promoter inh cell count 140 and HSV replic up primary fold 0.89.
Screening O=C(c1ccc(S(=O)(=O)N2CCCCC2)cc1)N1CCN(Cc2ccc3c(c2)OCO3)CC1 returned PKD1 inh 25, RGS16-Gao HTS 96, GALR2 ag 0.2, HSV replic up inactive and HSV replic up primary fold 1.1.
`CCC(=O)N(Cc1ccc2c(c1)OCO2)Cc1cc2cc(OC)ccc2[nH]c1=O` gave PKD1 inh -4, RGS16-Gao HTS 129, GALR2 ag -1.7, HSV replic up inactive and HSV replic up primary fold 0.94.
COCCN(C)C(=O)CCc1nnc(Cc2ccc(-c3ccccc3)cc2)o1 was read as PKD1 inh 5, RGS16-Gao HTS 99, HSV replic up inactive and HSV replic up primary fold 1.1.
Screening COc1ccc(N2CCN(C(=O)CSc3ccc([N+](=O)[O-])cc3)CC2)cc1 returned PKD1 inh 0, RGS16-Gao HTS 74, INS promoter inh -15, HSV replic up inactive, INS promoter inh cell count 67 and HSV replic up primary fold 1.1.
CCNC(=O)NC(=O)C(C)OC(=O)c1cccn1C (stereo unspecified) was read as PKD1 inh 6, RGS16-Gao HTS 100, HSV replic up inactive and HSV replic up primary fold 1.
CCC(C)NC(=O)C1CCN(S(=O)(=O)c2ccc(Br)s2)CC1 (stereo unspecified) was read as PKD1 inh -2, RGS16-Gao HTS 106, INS promoter inh 28, GALR2 ag -1.4, HSV replic up inactive, INS promoter inh cell count 66 and HSV replic up primary fold 1.
For CCOC(=O)c1cnc2c(-c3ccc(Cl)cc3)c(C)nn2c1N the results were PKD1 inh -5, RGS16-Gao HTS 105, INS promoter inh 44, GALR2 ag -4.1, HSV replic up inactive, INS promoter inh cell count 145 and HSV replic up primary fold 0.84.
For Cc1cc(OCC(F)(F)C(F)(F)C(F)(F)C(F)F)nc(N)n1 the results were PKD1 inh -1, RGS16-Gao HTS 93, INS promoter inh -43, GALR2 ag -2.5, HSV replic up inactive, INS promoter inh cell count 105 and HSV replic up primary fold 0.93.
For Cc1ccnc(NC(=S)NC(=O)c2cncc(Br)c2)c1 the results were PKD1 inh 1, RGS16-Gao HTS 121, INS promoter inh 22, GALR2 ag -0.8, HSV replic up inactive, INS promoter inh cell count 73 and HSV replic up primary fold 0.92.
COc1cccc(C(=O)Oc2c(Br)cc(Br)cc2/C=N/NC(=O)c2cc(C)[nH]n2)c1 was read as PKD1 inh 4, RGS16-Gao HTS 83, HSV replic up inactive and HSV replic up primary fold 1.
Screening COc1ccc(C2C(C(=O)O)CC(=O)N2c2ccc(OC)cc2)cc1 (stereo unspecified) returned PKD1 inh -15, RGS16-Gao HTS 104, GALR2 ag -2.6, HSV replic up inactive and HSV replic up primary fold 1.
`CCn1cc(C=C2C(=O)c3ccccc3C2=O)c2ccccc21` gave PKD1 inh -6, RGS16-Gao HTS 93, INS promoter inh 19, GALR2 ag -1.1, HSV replic up inactive, INS promoter inh cell count 93 and HSV replic up primary fold 1.
`Cc1cccc(OCC(=O)Nc2cccc(O)c2)c1` gave PKD1 inh -9, RGS16-Gao HTS 97, INS promoter inh -75, GALR2 ag -0.7, HSV replic up inactive, INS promoter inh cell count 78 and HSV replic up primary fold 1.
For CC(C)C(=O)OCC(=O)Nc1ccc2c(c1)CCC2 the results were PKD1 inh -6, RGS16-Gao HTS 105, INS promoter inh 26, GALR2 ag -3.0 and INS promoter inh cell count 95.

A draw from above in order of heavy-atom count, highest first:
For CCOC(=O)c1cnc2c(-c3ccc(Cl)cc3)c(C)nn2c1N the results were PKD1 inh -5, RGS16-Gao HTS 105, INS promoter inh 44, GALR2 ag -4.1, HSV replic up inactive, INS promoter inh cell count 145 and HSV replic up primary fold 0.84.
For Cc1cc(OCC(F)(F)C(F)(F)C(F)(F)C(F)F)nc(N)n1 the results were PKD1 inh -1, RGS16-Gao HTS 93, INS promoter inh -43, GALR2 ag -2.5, HSV replic up inactive, INS promoter inh cell count 105 and HSV replic up primary fold 0.93.
For Cc1ccnc(NC(=S)NC(=O)c2cncc(Br)c2)c1 the results were PKD1 inh 1, RGS16-Gao HTS 121, INS promoter inh 22, GALR2 ag -0.8, HSV replic up inactive, INS promoter inh cell count 73 and HSV replic up primary fold 0.92.

(listing goes on)
Screening C/C(CCc1ccccc1)=N\NC(=O)c1ccccc1 returned PKD1 inh -4, RGS16-Gao HTS 102, INS promoter inh 40, GALR2 ag 0.2, HSV replic up inactive, INS promoter inh cell count 121 and HSV replic up primary fold 0.92.
CCN1CCN(C(=O)c2cc(S(=O)(=O)Nc3ccc(S(C)(=O)=O)cc3)ccc2Cl)CC1 was read as PKD1 inh -2, RGS16-Gao HTS 101, HSV replic up inactive and HSV replic up primary fold 0.85.
Cc1ncc(CN2CCN(C(C)C)C(CCO)C2)s1 (stereo unspecified) was read as PKD1 inh -7, RGS16-Gao HTS 107, INS promoter inh -39, HSV replic up inactive, INS promoter inh cell count 91 and HSV replic up primary fold 0.95.
`COCCN1Cc2cccc(C(=O)Nc3cc(OC)ccc3OC)c2C1=O` gave PKD1 inh 2, RGS16-Gao HTS 100, INS promoter inh -4, GALR2 ag 1.2 and INS promoter inh cell count 67.
For FC(F)(F)c1cccc(-n2cccc2/C=N/n2cnnc2)c1 the results were PKD1 inh -2, RGS16-Gao HTS 92, INS promoter inh 17, GALR2 ag -1.7, HSV replic up inactive, INS promoter inh cell count 70 and HSV replic up primary fold 1.
Screening NNC(=O)c1cccc(Cn2cc(Br)c([N+](=O)[O-])n2)c1 returned RGS16-Gao HTS 93, HSV replic up inactive and HSV replic up primary fold 1.
For COC(=O)C(Nc1ccccc1Cl)(c1cc(C)c(O)c(C)c1)C(F)(F)F (stereo unspecified) the results were PKD1 inh -8, RGS16-Gao HTS 93, INS promoter inh 3, GALR2 ag -0.2, HSV replic up inactive, INS promoter inh cell count 100 and HSV replic up primary fold 1.
Screening CCOc1nc(Nc2ccc(OC)cc2)nc(N2CCOCC2)n1 returned PKD1 inh 5, RGS16-Gao HTS 112, HSV replic up inactive and HSV replic up primary fold 0.88.
`Oc1ccccc1C1=Nc2ccccc2N=C(c2cccs2)C1` gave PKD1 inh -4, RGS16-Gao HTS 101, INS promoter inh -16, GALR2 ag -0.9, HSV replic up inactive, INS promoter inh cell count 61 and HSV replic up primary fold 0.84.
For C=CCOc1ccc(C2NC(=S)NC3=C2CCc2ccccc23)cc1 (stereo unspecified) the results were RGS16-Gao HTS 96, HSV replic up inactive and HSV replic up primary fold 1.2.
Screening O=[N+]([O-])c1ccc(N2CCCCC2)nc1N1CCCCC1 returned RGS16-Gao HTS 101, HSV replic up inactive and HSV replic up primary fold 1.1.
For CC(C)CC(c1nnnn1C1CCCCC1)N1CCN(c2ncccn2)CC1 (stereo unspecified) the results were PKD1 inh -2, RGS16-Gao HTS 91, GALR2 ag -1.0, HSV replic up inactive and HSV replic up primary fold 0.83.
For CCOc1ncccc1C(=O)OCC(=O)Nc1ccc(C(C)C)cc1 the results were PKD1 inh -2, RGS16-Gao HTS 100, INS promoter inh -8, HSV replic up inactive, INS promoter inh cell count 86 and HSV replic up primary fold 0.92.
`Cc1ccc(C(=O)N/C(=C\c2ccco2)C(=O)NCCCn2ccnc2)cc1C` gave PKD1 inh 12, RGS16-Gao HTS 157, GALR2 ag -0.9, HSV replic up inactive and HSV replic up primary fold 1.1.
For O=S(=O)(c1cccc2nsnc12)N1CCN(C/C=C\c2ccccc2)CC1 the results were PKD1 inh 5, RGS16-Gao HTS 97, INS promoter inh -42, GALR2 ag 0.0, HSV replic up inactive, INS promoter inh cell count 107 and HSV replic up primary fold 1.
`O=C(Cn1c(C(F)(F)F)nc2ccccc21)NCCN1CCCC1` gave PKD1 inh -10, RGS16-Gao HTS 94, INS promoter inh 46, GALR2 ag -2.2, HSV replic up inactive, INS promoter inh cell count 118 and HSV replic up primary fold 0.91.
Screening Cc1cc(NC(=O)CSc2nc3c([nH]c4ccccc43)c(=O)n2-c2cccc(C(F)(F)F)c2)no1 returned PKD1 inh -9, RGS16-Gao HTS 109, INS promoter inh 5, GALR2 ag 1.4, HSV replic up inactive, INS promoter inh cell count 80 and HSV replic up primary fold 0.81.
For O=C(c1ccccc1)c1nc2ccccc2n(CCCn2c(=O)c(C(=O)c3ccccc3)nc3ccccc32)c1=O the results were PKD1 inh 1, RGS16-Gao HTS 110, INS promoter inh 8, GALR2 ag -1.8, HSV replic up inactive, INS promoter inh cell count 166 and HSV replic up primary fold 1.2.
COc1ccc(S(=O)(=O)N(CC(=O)Nc2ccc(S(=O)(=O)N3CCOCC3)cc2)c2ccccc2)cc1 was read as PKD1 inh -7, RGS16-Gao HTS 106, GALR2 ag -1.2, HSV replic up inactive and HSV replic up primary fold 0.88.
`COc1ccc(-c2c(C)nn3c(N4CCN(Cc5ccccc5)CC4)cc(C)nc23)cc1OC` gave PKD1 inh -8, RGS16-Gao HTS 105, GALR2 ag -2.0, HSV replic up inactive and HSV replic up primary fold 0.98.
Screening COc1ccc(S(=O)(=O)N[C@H](C(=O)N2CC[C@@]3(O)CCCC[C@H]3C2)c2ccccc2)cc1 returned PKD1 inh 13, RGS16-Gao HTS 107, INS promoter inh 14, GALR2 ag -2.6, HSV replic up inactive, INS promoter inh cell count 132 and HSV replic up primary fold 1.
Cc1ccc(C2(CC(=O)O)CCOC(C)(C)C2)cc1 (stereo unspecified) was read as PKD1 inh 7, RGS16-Gao HTS 103, INS promoter inh 43, GALR2 ag 0.3, HSV replic up inactive, INS promoter inh cell count 116 and HSV replic up primary fold 0.66.
CN(C)c1nc(C(F)(F)F)cc(=O)[nH]1 was read as PKD1 inh 0, RGS16-Gao HTS 99, INS promoter inh -6, HSV replic up inactive, INS promoter inh cell count 110 and HSV replic up primary fold 0.91.
COCc1[nH]nc2c1C(c1cccc(OC)c1)C(C#N)=C(N)O2 (stereo unspecified) was read as PKD1 inh 5, RGS16-Gao HTS 104, GALR2 ag -1.1, HSV replic up inactive and HSV replic up primary fold 0.89.
`CCOC(=O)C1=C(C)NC(=S)NC1C` (stereo unspecified) gave PKD1 inh 8, RGS16-Gao HTS 105, INS promoter inh 7, HSV replic up inactive, INS promoter inh cell count 99 and HSV replic up primary fold 0.97.
Screening Cc1cc(C)c(S(=O)(=O)c2ccccc2)c(OC(=O)c2cc(F)c(F)cc2Cl)n1 returned PKD1 inh 3, RGS16-Gao HTS 107, INS promoter inh 9, GALR2 ag -0.2, HSV replic up inactive, INS promoter inh cell count 100 and HSV replic up primary fold 0.92.
